Compound activity deposited in PubChem by ICCB-Longwood Screening Facility, Harvard Medical School.
Mtb MenB inh = M. tuberculosis MenB inhibitors, primary screen, biochemical, absorbance | 0.43% of 100,000 active | MenB enzyme assay, absorbance read-out; some hits fall short of the stated cut | 1,4-dihydroxy-2-naphthoyl-CoA synthase (Mycobacterium tuberculosis (strain ATCC 25618 / … | inhibition, %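 (about 12 µg/mL by stock and volumes)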 | AID 540299, 2011;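 active = mean of two replicates above 30%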;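 also: 0% = no compound and 100% = wells with inactive enzyme; the first replicate is given; strong numbers were not always called active; inactives centre near -10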
Target sequence (P9WNP5 whole entry, looked up): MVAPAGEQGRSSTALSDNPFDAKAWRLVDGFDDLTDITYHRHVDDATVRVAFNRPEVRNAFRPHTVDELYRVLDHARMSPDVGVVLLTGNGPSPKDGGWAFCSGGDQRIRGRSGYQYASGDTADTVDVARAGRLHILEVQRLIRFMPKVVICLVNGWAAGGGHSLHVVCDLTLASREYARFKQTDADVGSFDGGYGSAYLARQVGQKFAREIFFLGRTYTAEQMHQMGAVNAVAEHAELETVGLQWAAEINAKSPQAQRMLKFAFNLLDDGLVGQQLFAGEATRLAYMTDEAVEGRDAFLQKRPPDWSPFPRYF
PV pol inh = poliovirus RdRp elongation inhibitors, primary screen, biochemical, fluorescence polarization, total intensity; Genome polyprotein (Poliovirus type 1 (strain Mahoney)), P03300; poliovirus polymerase elongation; active compounds read low; % elongation, % (compound at 16.7 µg/mL); 0.66% of 150,000 active; in the data active = % elongation below about 90%; also: some results filed as inactive read as strong as hits
Target sequence (P03300 1749-2209 limits assumed): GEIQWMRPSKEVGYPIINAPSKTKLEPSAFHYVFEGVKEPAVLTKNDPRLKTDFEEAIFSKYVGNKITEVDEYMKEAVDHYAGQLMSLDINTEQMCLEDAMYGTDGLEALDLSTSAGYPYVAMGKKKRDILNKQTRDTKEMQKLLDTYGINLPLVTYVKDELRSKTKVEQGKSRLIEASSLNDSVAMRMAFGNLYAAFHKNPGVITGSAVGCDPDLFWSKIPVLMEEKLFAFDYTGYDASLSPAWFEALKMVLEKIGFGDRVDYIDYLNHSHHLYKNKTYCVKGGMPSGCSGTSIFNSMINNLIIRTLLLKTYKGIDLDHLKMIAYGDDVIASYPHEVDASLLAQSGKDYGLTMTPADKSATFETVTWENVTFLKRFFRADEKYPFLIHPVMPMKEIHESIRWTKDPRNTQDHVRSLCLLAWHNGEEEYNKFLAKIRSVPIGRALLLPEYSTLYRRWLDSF
MbtI inh = MbtI salicylate synthase inhibitors, primary screen, biochemical, fluorescence intensity; P9WFX0; purified MbtI enzyme, fluorescence intensity read-out; inhibition, %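 (about 17 µg/mL by stock and volumes)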; 0.89% of 100,000 active; AID 493033, 2011;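 active = above 50% in both replicates, above 80% if mildly self-fluorescent; inactive = the rest, strongly fluorescent compounds included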;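 also: 0% = mean of negative and 100% = mean of positive controls; one replicate is shown; some compounds called inactive have numbers as strong as hits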
PV pol inh intensity = further read-out of PV pol inh, marked with its call; % elongation; measured here: total intensity read-out; formula for this scale not given here;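 total fluorescence in place of polarization; lower means less elongation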
* hit, by the source's call; i = inactive; · = no result given. Rows were taken by chance. Share with any hit: about 1.9%.

Sequence of screens – Mtb MenB inh, PV pol inh, PV pol inh intensity, MbtI inh
- O=C(/C=C1\Sc2ccccc2NC1=O)NCCc1ccccc1
    -50, 102, 109, -10
- O=C(CCS(=O)(=O)Cc1ccccc1)Nc1cccnc1
    16, 100, 102, 0
- CC(C)CC(NC(N)=O)C(=O)NCc1ccccc1Cl (stereo not given)
    2, 103, 99, -17
- Cc1ccc(CNC(=O)c2ccc3c(c2)n(C)c(=O)c(=O)n3C)cc1
    18, 106, 120, -17
- CN1C(=O)COc2ccc(C(=O)c3ccccc3C(=O)O)cc21
    -5, 97, 103, ·
- CCOc1cc(/C=C/C(=O)O)ccc1OCc1ccccc1
    ·, 102, 98, -9
- COc1cccc(OCC(=O)Nc2ccncc2)c1
    ·, 101, 96, 5
- CCOC(=O)/C(C#N)=C\c1cccn1C
    i, 104, 102, 6
- N#C/C(=C\c1ccc(Sc2nc3ccccc3[nH]2)o1)c1ccccc1
    -51, 116, 135, 7
- Cc1ccc(CN(C)c2nc(-c3cccnc3)nc3sc4c(c23)CCCC4)o1
    -51, 106, 105, 106
- O=c1[nH]c2cc(Cl)ccc2c(-c2ccccc2)c1SC1=NCCS1
    -79, 104, 108, 15
- Cc1ccc(C)n1CC1CCCO1 (stereo not given)
    ·, 98, 110, -4
- CC(C)(CNC(=O)c1ccccc1Sc1ccccc1C#N)N1CCOCC1
    2, 101, 104, 24
- O=C(Nc1ccc(-c2cn3ccsc3n2)cc1)c1ccc2c(=O)n3c(nc2c1)CCCCC3
    -6, 103, 99, 0
- Cc1c(C(=O)NC(C)CCc2ccccc2)oc2c1C(=O)CCC2 (stereo not given)
    -8, ·, ·, -11
- CSc1cccc(NC(=O)CSc2nc3ccncc3[nH]2)c1
    -7, 98, 101, 3
- COc1ccccc1CCNC(=O)c1nccnc1C(=O)O
    11, 101, 103, 8
- COc1ccc(CNC(=O)CC2CCCCC2)cc1
    ·, 100, 91, 2
- CSc1ccccc1NC(=O)CN(C)CC(=O)N1CCN(C(=O)c2ccco2)CC1
    -7, 100, 107, -2
- Cc1ccc2nc(Nc3nccc(C)n3)nc(C)c2c1
    -1, 104, 107, ·
- COc1cccc(N=Cc2c(O)n(Cc3ccco3)c(=O)[nH]c2=O)c1
    -56, 96, 113, 89
- Oc1ccccc1CNCC1CCCO1 (stereo not given)
    14, 99, 95, ·
- Cc1cc(C)c2c(c1)OCN(Cc1ccc(Cl)cc1)C2
    4, 103, 99, 3
- CC1(C)CC(=O)C/C(=N\Nc2n[nH]c(=O)[nH]c2=O)C1
    -44, 101, 98, 35
- COc1cccc2ccc(Cl)nc12
    2, 104, 94, 108
- O=C(NCCN1CCN(c2ccccc2F)CC1)C1CCCN(S(=O)(=O)c2cnc[nH]2)C1 (stereo not given)
    -16, 103, 97, -4
- Cc1ccc(N2CCN(C(=S)c3ccc(N(C)C)cc3)CC2)cc1
    -64, 93, 90, 42
- COc1ccc(Cn2c(SCC#N)nc3ccc(N4CCOCC4)cc3c2=O)cc1
    -31, 98, 93, -9
- CCN(c1ccccc1)S(=O)(=O)c1ccc(N(C)Cc2cccs2)nc1
    2, 100, 96, 20
- Cc1ccc(Nc2c(F)c(F)c(F)c(F)c2C(=O)O)c(C)c1
    -1, 101, 100, 4

In the list so far, 3 have two or more sulfur atoms:
Sequence of screens – Mtb MenB inh, PV pol inh, PV pol inh intensity, MbtI inh
- O=c1[nH]c2cc(Cl)ccc2c(-c2ccccc2)c1SC1=NCCS1
    -79, 104, 108, 15
- CSc1cccc(NC(=O)CSc2nc3ccncc3[nH]2)c1
    -7, 98, 101, 3
- CCN(c1ccccc1)S(=O)(=O)c1ccc(N(C)Cc2cccs2)nc1
    2, 100, 96, 20

Following part
Sequence of screens – Mtb MenB inh, PV pol inh, PV pol inh intensity, MbtI inh
- CCOc1ccc(C(=O)OC2CC3CCC(C2)N3C)cc1 (stereo not given)
    -7, 103, 106, -11
- O=C1C=C(c2ccccc2)OC(c2ccccc2)O1 (stereo not given)
    8, 100, 102, 2
- C#CCO/N=C1/CCCc2nonc21
    -68, 102, 103, -14
- O=C(Nc1ccc2nc(-c3ccccn3)[nH]c2c1)C1CCCCC1
    -9, 100, 103, i
- Oc1ccc(N=Cc2ccccc2O)cc1
    4, 107, 100, 81
- CCn1c(C)[n+](CC)c2ccc(S(=O)(=O)N3CCCCC3)cc21
    -21, 101, 102, -3
- O=C(Cc1cccc2ccccc12)NCCN1CCOCC1
    -5, 106, 110, ·
- CC1(C)Cc2c(c(-c3ccco3)nc3sc4c(NC5CCCCC5)ncnc4c23)CO1
    -8, 101, 105, 15
- CCOC(=O)c1cnc2ccc(OCC)cc2c1NCCCN1CCOCC1
    2, 89*, 77*, ·
- CCc1nnc(NC(=O)CSC2=NCCS2)s1
    5, 99, 99, 5
- COc1cc2c(cc1OC)C(C(=O)NCc1ccc3c(c1)OCO3)C1c3ccccc3CCN1C2=O (stereo not given)
    -5, 99, 103, 15
- Cc1cccn2cc(CNS(=O)(=O)c3cccc(F)c3)nc12
    3, 104, 98, -13
- Cc1cc(Cl)ccc1OC(C)C(=O)NCCCn1ccnc1 (stereo not given)
    6, 100, 102, -6
- OCCCNC(c1ccccc1)c1ccc(O)cc1 (stereo not given)
    -33, 107, 103, -2
- NCCCN1CCN(c2ccccc2)CC1
    -19, 99, 100, -2
- COC(=O)c1ccc(CSc2nc3ccccc3c(=O)n2C(C)c2ccccc2)o1 (stereo not given)
    -3, 100, 109, 14
- O=C(Nc1ccc(Cl)cc1)c1c[nH]n2c(=O)cc(C3CCNCC3)nc12
    -23, 100, 101, -2
- O=C(O)c1ccc(-n2nnnc2SCc2ccccc2F)cc1
    7, 99, 101, 0
- CSc1nc(NS(=O)(=O)c2cc(Cl)sc2Cl)nn1C
    -12, 101, 98, 13
- CCOC(=O)c1cn(C)c2ccccc2c1=O
    -65, 105, 100, 17
- CCOc1ccccc1COC(=O)Cc1coc2cc(O)ccc12
    0, 105, 107, -10
- CN(CC(=O)NC1CCCCCCC1)S(=O)(=O)c1ccc2[nH]c(=O)oc2c1
    -1, 100, 103, 7
- CCCCN1C(=O)CN(CCc2ccccc2)C(=O)C1c1ccc(OC)cc1 (stereo not given)
    -10, 99, 99, 20
- O=C(c1ccc(N2CCOCC2)nc1)N1CCN(C(c2ccccc2)c2ccccc2)CC1
    -15, 103, 103, -6
- CC(C)c1cc(C(C)C)c(S(=O)(=O)NCCC(=O)O)c(C(C)C)c1
    -14, 103, 100, -6
- Cc1cc(=O)oc2cc(OCC(=O)c3ccccc3F)ccc12
    ·, 101, 96, -6
- COC(=O)c1ccc(NS(=O)(=O)c2ccc3c(c2)CC(C)N3C(=O)C2CCC2)cc1 (stereo not given)
    -42, 101, 98, 0
- CC(=O)OCC(=O)[C@@]12OC(C)(C)O[C@@H]1C[C@H]1[C@@H]3C[C@H](F)C4=CC(=O)C=C[C@]4(C)[C@@]3(F)[C@@H](O)C[C@@]12C
    -6, 101, 101, -10
- COC(=O)c1ccc(C=Nc2ccc3oc(-c4ccc(C)cc4)nc3c2)cc1
    -1, 103, 106, -13
- O=C(NCCc1ccccc1)c1cccs1
    -25, 100, 102, 1
- Cc1cc(C)n(CCc2nc3c4ccccc4nc(=S)n3[nH]2)n1
    -26, 104, 105, 17
- CCOc1ccc(NC(=O)[C@H](C(C)CC)N2Cc3ccccc3C2=O)cc1 (stereo not given in full)
    -3, 102, 107, -5
- Nc1nc2c(o1)oc1nc(-c3ccccc3)cc(-c3ccccc3)c12
    -41, 104, 105, 6
- O=C(CSc1nnc(COc2ccccc2)o1)NCc1ccccc1
    -13, 101, 102, 9
- O=c1[nH]c2cc(Cl)ccc2n(Cc2ccccc2)c1=O
    ·, 99, 104, 7
- c1ccc(Cn2c(CSc3nnnn3C3CCCCC3)nc3ccccc32)cc1
    -7, 102, 106, 3
- COc1ccc(Br)cc1CN(C)C(C)C(=O)N1CC(C)OC(C)C1 (stereo not given)
    -2, 104, 105, 0
- Cc1[nH]c2ccccc2c(=O)c1CN1CCCCCC1
    3, 102, 105, 7
- CN1C(=O)NC(=O)C1(C)C
    -23, 103, 102, 3
- Cc1ccc(C2Nc3ccc4ccccc4c3C3=C2C(=O)CC(C)(C)C3)cc1 (stereo not given)
    -14, 102, 109, ·
- CCOC(Cn1ccc(=O)[nH]c1=O)OCC
    0, 101, 102, -4
- COC(=O)CSc1nnc(Cc2cc(=O)[nH]c(=O)[nH]2)n1-c1ccc(OC)cc1
    -41, 101, 107, -5
- O=C(Cc1ccccc1)Nc1ccc(I)cn1
    -33, 102, 100, -3
- CCNC(=O)c1cc(Br)ccc1Cl
    -14, 101, 105, -14
- N#Cc1cccc(CSc2nnc(Nc3ccccc3)n2-c2ccccc2)c1
    -21, 100, 103, -15
- CCOC(=O)C(Sc1nnc(-c2cc(OC)cc(OC)c2)o1)c1ccccc1 (stereo not given)
    -20, 100, 107, 15
- c1ccc(N2CCN(c3ccnc(N4CCN(c5ccccc5)CC4)n3)CC2)cc1
    -17, 107, 98, 5
- COc1ccc(OCc2nc(C#N)c(NCCc3ccccc3)o2)cc1
    -38, 105, 101, -5
- O=C(NC(=S)Nc1ncn[nH]1)c1ccccc1
    -7, 103, 101, 5
- CCCC12CCC(O)(CC1)C/C2=N\NS(=O)(=O)c1ccc(C)cc1
    0, 100, 98, 0
- Cc1ccc(NC(=O)CSC2=NN3CCS(=O)(=O)N=C3S2)c(C)c1
    -1, 103, 110, -3
- COC(=O)CSC1=C(C#N)C(=O)NC(c2ccc(O)c(OC)c2)S1 (stereo not given)
    5, 99, 100, 0
- CC(=O)Nc1ccc2c(c1)nc(CN1CCCCC1)n2C
    -26, 99, 100, 4
- Clc1ccc(-c2onc3cc(-c4ccccc4)ccc23)cc1
    -48, 104, 104, 8
- COc1ccc(CCC(=O)NCc2cn3ccc(C)cc3n2)cc1
    -13, 105, 107, 103
- O=S(=O)(NC1CCc2ccccc21)c1ccc(S(=O)(=O)N2CCCC2)cc1 (stereo not given)
    39*, 102, 101, -5
- CC1(C)CC(=O)C=C(NCC2CCN(C(=S)Nc3ccccc3)CC2)C1
    -25, 98, 94, 5
- COc1ccc(-n2nc3cc(C)c(NC(=S)NC(=O)c4oc5ccccc5c4C)cc3n2)cc1
    12, 103, 103, -5
- O=C(Nc1ccccc1C(=O)O)c1cc[n+]([O-])cc1
    ·, 102, 105, 34
- Cc1[nH]n(-c2ccccc2)c(=O)c1Sc1c(F)c(F)c(F)c(F)c1F
    12, 99, 99, 27

Next entries follow.
Sequence of screens – Mtb MenB inh, PV pol inh, PV pol inh intensity, MbtI inh
- O=C(C1CC(=O)N(c2ccccc2)C1)N1CCc2ccccc2C1 (stereo not given)
    -4, 100, 101, 2
- CN(C(=O)COC(=O)c1cncc(Br)c1)c1ccccc1
    ·, 101, 104, 2
- CCCCS(=O)(=O)/C=C/C1C2C=CC(C2)C1S(=O)(=O)CCCC (stereo not given)
    -26, 101, 85, ·
- CC(=O)NC(NC(C)=O)c1ccccc1
    -22, 103, 100, -2
- N#C/C(=C\N1CCN(Cc2ccccc2)CC1)S(=O)(=O)c1ccc(Cl)cc1
    -23, 103, 95, -6
- O=C(COc1ccc(-c2nnco2)cc1)N1CCSc2ccccc21
    -1, 100, 102, 2
- CC(C)(CNC(=O)c1ccccc1NS(C)(=O)=O)N1CCCCC1
    3, 100, 104, 106
- CCCCn1c(=O)n(C)c(=O)c2cc3c(nc21)-c1cc(F)ccc1OC3O (stereo not given)
    -64, 103, 105, -12
- Cc1[nH]c2c(C)cccc2c(=O)c1CN1CCOCC1
    1, 101, 104, 19
- CCN(CC)c1ccc2ccc(=O)oc2c1
    i, 100, 113, i
- Cn1c(=O)oc2cc(NC(=O)c3ccccc3)ccc21
    5, 100, 101, -22
- CCCNS(=O)(=O)c1ccc(CCC(=O)NC2CCCC2)cc1
    -20, 102, 102, -15
- O=C(O)C1CCC(CNCc2c(Cl)cccc2Cl)CC1 (stereo not given)
    -16, 101, 105, 3
- CC(C)(C)C(=O)COC(=O)c1cc(-c2ccco2)nc2ccccc12
    -33, 111, 115, 101
- CC1CN(C(=O)Cc2ccc(Cl)cc2)CC(C)O1 (stereo not given)
    -11, 107, 113, ·
- CN1c2ccccc2C(=O)/C(=C\Nc2ncccn2)S1(=O)=O
    -9, 106, 112, -6
- CCC1CCCCN1S(=O)(=O)c1ccc(NC(=O)c2ccncc2)cc1 (stereo not given)
    -24, 104, 103, -12
- CCc1ccc(NS(=O)(=O)c2ccc3nc(-c4ccccc4)[nH]c3c2)cc1
    -1, 102, 97, 3
- CC(C(=O)N1CCc2ccccc21)N(C)CC(=O)Nc1ccccc1Cl (stereo not given)
    -34, 103, 107, -8
- CN1C(=O)/C(=C/c2ccccc2Cl)Sc2ccc(C(=O)O)cc21
    -21, 102, 101, 13
- Nc1nnc2c(Nc3ccccc3)nc3nonc3n12
    -3, 102, 102, -82
- O=C(CNCc1ccc2c(c1)OCO2)NCc1ccc2c(c1)OCO2
    11, 102, 94, 8
- COC(=O)c1cc(NC(=O)C2CC(=O)NC3=C2C(=O)CCC3)cc(C(=O)OC)c1 (stereo not given)
    1, 101, 102, 4
- Cc1cc(NCc2cccnc2)no1
    -12, 104, 106, -16
- c1ccc(-c2nc(-c3ccn[nH]3)cs2)cc1
    -16, 105, 108, 5
- O=C(CSc1nc2ccccc2c(=O)n1-c1ccccc1)NCCc1ccccc1
    ·, 104, 102, 0
